# miR-21 reporter: raises the signal of a miR-21 reporter; Potency, µM (series often up to 38.3 µM), without a hit: at the highest dose reporter change, positive = more light; HeLa miR-21 FLuc reporter, luciferase, 48 h; 340,000 tested, under 10 active; active = well fitted rising curve with a large enough effect; inconclusive = small, poorly fitted or top-dose-only effect; inactive = no such curve, though single readings can be large or run the other way;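 further: % of control where 0% means no effect; miR-21 action dims this reporter so a rising signal means less miR-21 action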
#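 HeLa cells stably expressing CMV-driven firefly luciferase with a downstream miR-21 binding sequence, endogenously expressing miR-21, were treated with titrations (up to about 40uM final) for 48 hours at 37 degree Celsius. Luciferase luminescence was read after lysis.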
# Rango complex inh: Rango-importin beta binding inhibition; Q14974; Rango CFP/YFP FRET sensor + importin beta, 45 min; Potency, µM (top dose mostly 92.2 µM), without a hit: at the highest dose inhibition of complex formation; actives 0.031% (n = 340,000); AID 540263; active = rising FRET ratio curve, often small or poorly fitted; inconclusive = mostly compound fluorescence or quenching in the first reads; inactive = flat curves in all reads;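 further: potency means the concentration at half of the fitted maximal effect; 0% = DMSO wells and 100% = buffer wells lacking importin beta; nearly all actives have a fitted effect of over 15% in size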
#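 FRET biosensor Rango (snurportin 1 IBB between N-terminal EYFP and C-terminal Cerulean), 50 nM in PBS/1 mM DTT/0.02% Tween-20/0.1% BSA, preincubated 5 min RT with compound; 0.125 microM importin beta added, 45 min RT, CFP/YFP FRET ratio read.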
# Rango dissoc inh: inhibitors of RanGTP-induced Rango-importin beta complex dissociation; actives 0.071% (n = 340,000); Biochemical FRET Rango-importin beta, RanGTP-induced dissociation; Potency, µM (highest dose often 46.1 µM), without a hit: top-dose activity change, negative = inhibition; AID 540253; O95149+P62826; active means falling FRET ratio curve, often poorly fitted, with flat reads before Ran was added; inconclusive means other falling curves, or compound fluorescence or quenching; inactive means flat or rising ratio curve;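 further: potency means the concentration at half of the fitted maximal effect; % of control where 0% means no effect; nearly all actives have a fitted effect of over 45% in size; -100% = wells without RanGTP and RCC1; the record marks most hits as doubtful in a second field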
#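 Compounds preincubate 5 min with complex of recombinant Rango and importin beta in PBS with 1 mM DTT. Ran (0.6 uM) loaded with 2 mM GTP plus 0.2 uM RCC1 starts dissociation; FRET is recorded 45 min later.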
# GLA inh pH 4.5: inhibitors of human alpha-galactosidase A at pH 4.5 | P06280 | 230,000 tested, under 10 active | AID 1467 | purified enzyme, 4-MU-alpha-Gal fluorescence, pH 4.5 | activity change, negative = inhibition, % at 105 µM; inconclusive = small, poorly fitted or top-dose-only inhibition, or a rising curve; inactive = flat fitted curve, though single readings scatter; no compound was filed as active;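 further: 0% = full activity with enzyme and -100% = basal without enzyme; dose as in the result columns while the protocol names 77 µM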
# Target sequence (P06280 whole entry, looked up): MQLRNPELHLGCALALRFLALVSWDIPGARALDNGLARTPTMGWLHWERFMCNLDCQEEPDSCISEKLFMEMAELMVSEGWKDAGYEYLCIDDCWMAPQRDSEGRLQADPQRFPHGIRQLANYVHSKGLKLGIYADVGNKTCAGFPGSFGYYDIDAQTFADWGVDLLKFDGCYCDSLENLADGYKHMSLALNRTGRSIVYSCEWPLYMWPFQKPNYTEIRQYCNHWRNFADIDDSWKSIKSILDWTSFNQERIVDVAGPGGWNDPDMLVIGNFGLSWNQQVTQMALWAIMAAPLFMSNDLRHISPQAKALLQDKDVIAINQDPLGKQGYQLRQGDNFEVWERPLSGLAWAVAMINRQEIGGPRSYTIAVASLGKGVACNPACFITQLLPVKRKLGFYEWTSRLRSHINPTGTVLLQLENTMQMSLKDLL
# Active calls of the source: *; ? = inconclusive; . = no result given.
miR-21 reporter,Structure,Rango complex inh,Rango dissoc inh,GLA inh pH 4.5
-76.4%,CCn1c(C)nc2cc(C(=O)NNC(=S)Nc3ccccc3OC)ccc21,1.1%,14.0%,-0.3
-20.4%,CCOC(=O)c1sc(=S)n(-c2ccc3c(c2)OCO3)c1N,0.4%,-14.8%,1.9
.,Cc1cc(C)cc(NS(=O)(=O)c2ccc(NC(=O)c3ccccc3C(=O)O)cc2)c1,4.9%,0.0%,.
-0.3%,CC(C)c1ccc(NC2CCCN(C(=O)CN3C(=O)CSC3=O)C2)cc1 (centres undefined),0.5%,8.7%,.
-4.3%,CCOc1ccc(NS(=O)(=O)c2ccc3[nH]cc(C(=O)NC(C)CC)c(=O)c3c2)cc1 (centres undefined),-3.7%,-0.7%,-5.8
10.0%,COc1ccc2nc(C(F)(F)C(F)(F)F)c(C#N)c(N)c2c1,4.2%,0.5%,-6.2
-4.3%,O=C(CNC(=O)c1ccco1)NCCCc1ccccc1,-5.6%,-16.8%,1.7
5.6%,CNC(=O)COC(=O)CNC(=O)c1cc(Cl)cc([N+](=O)[O-])c1,0.9%,2.2%,1.2
.,CC(CSc1n[nH]c(=S)s1)c1ccccc1 (centres undefined),3.9%,1.7%,.
-2.3%,CCOCCCNS(=O)(=O)c1ccc(NC(=O)Cc2c(F)cccc2Cl)cc1,-0.8%,1.7%,-8.1
.,O=[N+]([O-])c1cccc(S(=O)(=O)/N=C(/Nc2ccccc2)c2ccccc2)c1,1.0%,0.3%,.
1.7%,CC(=O)c1ccc(NC2OC(C)C(O)C(O)C2O)cc1 (centres undefined),0.7%,-0.4%,-1.8
-1.4%,CC1=C(C(=O)OCC(C)C)C(c2ccsc2)NC(=O)N1 (centres undefined),?,0.9%,0.2
.,COC(=O)C[C@H]1c2cc(F)cc(F)c2S(=O)(=O)N1C1CCN(Cc2ccccc2)CC1,-0.3%,-10.8%,.
2.3%,O=C(Nc1cccc(-n2cnnn2)c1)c1ccncc1,4.4%,?,.
2.6%,Cc1cccc(C)c1N1CCc2cn[nH]c21,-1.3%,13.6%,-4.0
-3.2%,COc1ccc(C2SCC(=O)N2C)cc1 (centres undefined),0.2%,-11.6%,6.2
-2.2%,CCOC(=O)Nc1ccc(S(=O)(=O)NCCCN2CCOCC2)cc1,4.5%,2.4%,-1.9
-3.8%,O=C(O)c1ccc(NC(=O)C2(c3ccccc3)CCOCC2)cc1,-1.7%,0.6%,6.8
2.1%,CCOC(=O)C1CCCN(c2nc3c(C)cccn3c(=O)c2/C=C(\C#N)C(=O)NCc2ccco2)C1 (centres undefined),?,-23.4%,0.9
-5.7%,CCn1c(Cc2cccc3ccccc23)nnc1SCC(=O)Nc1nccs1,5.6%,8.0%,3.2
-5.5%,CCN(CC)C(=O)CSC1=Nc2ccccc2C2=NC(c3ccccc3)C(=O)N12 (centres undefined),-4.4%,22.9%,18.9
.,CCc1ccc(C(=O)C(C)OC(=O)CN2C(=O)NC3(CCCC3)C2=O)cc1 (centres undefined),-0.2%,9.4%,.
0.8%,COc1ccccc1NC(=S)NC12CN3CN(CN(C3)C1)C2,0.3%,2.3%,-0.7
-10.3%,COCc1nnc(NC(=O)CCCOc2ccccc2)s1,5.4%,17.0%,4.7
-28.0%,Cc1ccc2c(Cl)c(C(=O)NCCCn3ccnc3)sc2c1,-0.1%,13.9%,2.0
-3.6%,COc1cc(COCC(O)CN2CCN(Cc3ccc4c(c3)OCO4)CC2)cc(OC)c1OC (centres undefined),-0.2%,0.0%,6.7
14.5%,Cc1c2ccccc2cc(Cc2ccccc2)[n+]1C,1.2%,-8.0%,.
-5.8%,Cc1ccc(-c2c3c(nc4sc(C(N)=O)c(N)c24)CCC3)cc1,?,?,-3.7
-12.4%,CNc1ccccc1NC(=O)CCn1c(=S)oc2ccccc21,2.4%,7.3%,1.4
-3.6%,CN(Cc1ccco1)C(=O)CCc1nc2sc3c(c2c(=O)[nH]1)CCCC3,1.0%,-15.1%,.
.,CCOC(=O)N1CCN(C(=O)CCNS(=O)(=O)c2ccc(C)c(C)c2)CC1,0.0%,7.2%,.
-1.5%,O=C(O)c1cccc(-n2c(O)c(C=C3N=c4ccccc4=N3)sc2=S)c1,5.2%,-4.1%,0.6
-0.5%,COC(=O)c1ccc(C2/C(=C(/O)c3ccc(Cl)cc3)C(=O)C(=O)N2C2CCS(=O)(=O)C2)cc1 (centres undefined),-3.0%,0.5%,.
-3.9%,NN1C(=O)/C(=C2/Sc3ccccc3N2CCCS(=O)(=O)O)SC1=S,?,?,.
21.2%,N/C(=N\OC(=O)c1ccc2ccccc2c1)c1ccccn1,0.1%,-5.7%,9.2
3.2%,CCN(CC(=O)N1CCOCC1)S(=O)(=O)c1ccccc1,-3.5%,13.3%,.
-18.4%,Cc1cccc(/C=N/NC(=O)c2cc(Br)ccc2O)n1,0.2%,-0.1%,.
.,COc1ccccc1CNC(=O)COc1ccccc1C(=O)c1cnn(-c2ccccc2)c1,?,-23.2%,.
-3.5%,CCOC(=O)C1CCN(S(=O)(=O)c2ccc(OCC(=O)OC)cc2)CC1,-3.6%,0.3%,-17.3
22.8%,O=C(N/N=C/c1cc([N+](=O)[O-])ccc1O)/C(=C\c1cccs1)NC(=O)c1ccccc1,?,?,-3.8
-3.9%,COc1ccc(OC)c(N=Cc2c(O)c3ccccc3oc2=O)c1,?,?,.
-3.7%,CCCCn1c(CCC(=O)O)nc2cc(S(=O)(=O)N(CC)CC)ccc21,-2.0%,7.8%,3.6
8.3%,Cc1cc(OC(C)C(=O)NCc2cccnc2)c2c(C)c(C)c(=O)oc2c1 (centres undefined),7.8%,3.1%,.
-3.4%,O=c1[nH]c(C2CCN(S(=O)(=O)c3cccc([N+](=O)[O-])c3)CC2)nc2c1nnn2Cc1ccccc1,-2.6%,12.4%,.
14.6%,CN(Cc1cccc(Cl)c1Cl)C(=O)c1cccc(S(=O)(=O)N2CCN(Cc3ccccc3)CC2)c1,2.8%,7.2%,.
-5.6%,COc1ccc(NC(=S)NC(=O)/C=C/c2ccco2)c(OC)c1,4.5%,9.7%,.
4.3%,COc1ccccc1N1CCN(C(=O)CCCN2C(=O)c3cccc4cccc(c34)C2=O)CC1,-1.6%,2.0%,-0.6
0.4%,O=C(Nc1cccc(S(=O)(=O)NC2=NCCC2)c1)c1cc(-c2ccccn2)nc2ccccc12,7.4%,12.9%,1.3
-4.0%,O=C(c1ccccc1-c1ncc[nH]1)N1CCCC(Nc2ccc(F)cc2)C1 (centres undefined),0.7%,14.4%,.
-5.4%,CC1(C)Cc2ccccc2-c2nc(CN3CCOCC3)[nH]c(=O)c21,-3.2%,4.3%,-1.4
4.5%,CCOC(=O)C1=C(C)N=c2s/c(=C/c3ccco3)c(=O)n2C1c1cccc(OC)c1 (centres undefined),?,?,?
-9.5%,O=C(NCc1ccc2c(c1)OCO2)c1ccc(Br)cc1,-0.5%,4.6%,.
-0.2%,Cc1ccc(N2CC(O)Cn3c2nc2c3c(=O)[nH]c(=O)n2C)cc1 (centres undefined),4.1%,-13.0%,.
.,COc1ccc(CCNC(=O)CSCc2ccc(C)cc2)cc1OC,-1.0%,-14.8%,.
.,Cc1cccc(C(=O)NCC(=O)OCc2nnc(-c3ccccc3)o2)c1,-0.6%,-2.6%,.
.,CCn1cc(CN(C)C(=O)CSc2nc(-c3ccco3)cc(C(F)(F)F)n2)c(C)n1,-3.4%,-21.6%,.
-29.9%,O=C(C1COc2ccccc2O1)N1CCc2ccccc2C1 (centres undefined),-4.7%,4.3%,5.1
0.4%,COCCn1c(-c2ccc(Cl)cc2)nc2oc3cc(OC)ccc3c(=O)c2c1=O,-1.2%,28.8%,6.5
-23.9%,COc1ccc(C2c3ccc(O)cc3Oc3ncn(CCN4CCOCC4)c(=N)c32)cc1OC (centres undefined),?,?,2.6

# (list continues)
miR-21 reporter,Structure,Rango complex inh,Rango dissoc inh,GLA inh pH 4.5
1.9%,CC(C)CC(c1nnnn1C(C)C)N1CCN(c2cccc(Cl)c2)CC1 (centres undefined),-6.9%,18.2%,-13.5
-2.3%,CCC(CC)C(=O)Nc1cc(C(=O)OC)ccc1C(=O)OC,1.9%,-20.5%,-6.3
.,CCN1C(=O)[C@H]2[C@@H](c3ccc(-c4ccc(Cl)c(Cl)c4)cc3)N[C@@](C)(C(=O)OC)[C@H]2C1=O,1.9%,22.4%,.
-8.8%,N#Cc1ccc(C(=O)Nc2nnc(-c3cccs3)o2)cc1,-0.1%,-1.6%,-2.1
-11.4%,COCC(C)n1c(C)cc(C(=O)COC(=O)c2oc3ccccc3c2C)c1C (centres undefined),0.9%,3.9%,-22.4
-4.4%,CC(C)[C@H](NC(=O)CCn1nnc2ccccc2c1=O)C(=O)O,-0.5%,0.3%,-7.6
6.1%,CCOC(=O)Cc1sc(N)nc1C,-2.5%,42.0%,-0.6
12.9%,CN1CCc2cc3c(c4c2[C@H]1[C@H](O)c1ccccc1-4)OCO3,?,?,-29.1
-17.5%,COc1ccc(-c2noc(CN(C(=O)C(C)(C)C)C(C)C)n2)cc1,-1.3%,17.6%,0.1
-7.6%,COc1ccc(-c2cc(C(=O)N3CCN(c4ccccc4OC)CC3)no2)cc1OC,3.2%,-16.9%,-8.5
.,CC1C(=O)C(C)C(c2ccc(Cl)cc2)NC1c1ccc(Cl)cc1 (centres undefined),-1.7%,-4.5%,.
0.0%,N#C/C(=C\Nc1ccccc1SC(F)(F)F)c1nc(-c2ccc(F)cc2)cs1,-2.0%,-4.9%,-19.0
-0.3%,COc1ccc(C)cc1NC(=O)NC1CCN(Cc2ccccc2)CC1,-0.7%,0.0%,-11.0
-12.1%,Cc1ccsc1C1C=C(c2cccc(Br)c2)Nc2ncnn21 (centres undefined),?,?,0.8
0.6%,CCC(CC)C(=O)c1c[nH]c(C(=O)NCCCn2ccnc2)c1,-4.8%,11.1%,-21.6
.,COc1ccccc1NS(=O)(=O)c1ccc(C)c(C(=O)NCC2(N(C)C)CCCCC2)c1,-6.1%,3.6%,.
.,CCN(CC)C(=O)[C@H]1C[C@H](CC(=O)NCc2ccco2)C(=O)N2CCc3c([nH]c4cc(CCC(=O)N(C)C)ccc34)[C@]12C,1.1%,-20.2%,.
-48.5%,Cc1cc(C(=O)Cn2nc(C(=O)O)c3ccccc3c2=O)c(C)n1CC(F)(F)F,0.9%,6.5%,-0.9
.,CCCC[C@@H]1C=C(C(=O)O)[C@H](c2ccc(CC)cc2)N1S(=O)(=O)c1ccc(C)cc1,8.7%,3.8%,.
13.0%,O=C(CN1CC(c2ccccc2)CC1=O)N/N=C/c1cc(Br)ccc1O (centres undefined),?,?,-10.3

# Sorted by formula weight (smallest number first): some entries from above.
miR-21 reporter,Structure,Rango complex inh,Rango dissoc inh,GLA inh pH 4.5
6.1%,CCOC(=O)Cc1sc(N)nc1C,-2.5%,42.0%,-0.6
-8.8%,N#Cc1ccc(C(=O)Nc2nnc(-c3cccs3)o2)cc1,-0.1%,-1.6%,-2.1
-7.6%,COc1ccc(-c2cc(C(=O)N3CCN(c4ccccc4OC)CC3)no2)cc1OC,3.2%,-16.9%,-8.5

# (continued)
miR-21 reporter,Structure,Rango complex inh,Rango dissoc inh,GLA inh pH 4.5
-38.3%,CSc1ncc(C(=O)Nc2ccc(C(C)=O)cc2)c(C)n1,-1.2%,-8.0%,.
-7.7%,CCOC(=O)C(NC(C)=O)(Nc1ccc(S(=O)(=O)Nc2onc(C)c2C)cc1)C(F)(F)F (centres undefined),?,-6.0%,0.2
-11.1%,Cc1cnn(-c2cc(N/N=C/c3ccccc3F)ncn2)c1,2.6%,0.4%,0.7
2.7%,O=C(O)c1ccc(NC(=O)C2(c3ccccc3)CCCC2)cc1,-3.4%,-6.3%,0.4
.,CCN(CC)S(=O)(=O)c1ccc(NC(=O)c2ccc(OCC3CCCO3)cc2)cc1 (centres undefined),0.6%,-4.0%,.
1.7%,COCCSc1ccccc1C(=O)Nc1nccs1,3.7%,4.7%,0.5
-8.4%,Cc1ccc(-c2csc(N3CCN(c4cc5c(cc4Cl)nc(C)n5CCN4CCCCC4)CC3)n2)cc1,?,9.3%,.
-3.3%,CCOc1cc(NC(=S)NCC(C)C)c(OCC)cc1NC(=O)c1cccs1,-4.1%,-20.7%,-4.3
-7.5%,O=[N+]([O-])c1ccc(N2CCN(S(=O)(=O)c3ccccc3[N+](=O)[O-])CC2)cc1NCc1cccnc1,2.2%,24.1%,-11.7

# Not all compounds are listed (hit frequency here may not be typical).
